Tg IFNy HTS – T. gondii growth inhibition with IFN-gamma, primary screen, cell-based. Toxoplasma gondii growth in IFN-gamma-treated host cells; active compounds read low; reference of the scale not given here. activity change, negative = inhibition, %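 (about 20 µM by stock and volumes)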. hit rate 3.8% among 69,000;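 active = below -70%; inconclusive = fit judged invalid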;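 note: host cells are HeLa cells infected with Toxoplasma gondii; parasite growth read as luciferase light; one replicate is shown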
* marks the source's active call; other numbers are inactive results; ? = inconclusive; & = joins results of further samples. The list is partial; the hit share may differ from the screen's.

SMILES | Tg IFNy HTS
Cc1cc(C)c(NC(=O)c2nnn(Cc3nc(-c4ccccc4)oc3C)c2C)c(C)c1 | -77.2*
COc1cccc(-c2nccn2CCC2CCCN2C)c1OC (stereo unspecified) | 56.4
CN1C(=O)CCc2cc(NC(=O)C(F)(F)F)ccc21 | 6.1
CC(COc1ccccc1)NCc1n[nH]c2c1CCCCC2 (stereo unspecified) | -20.8
CCN(CC)C(=O)CC1CC2(CCN(C(=O)N3CCCC3)CC2)Oc2ccccc21 (stereo unspecified) | -10.9
COCC1CN(CC2CCOCC2)Cc2ncn(C)c21 (stereo unspecified) | -20.9
O=S(=O)(NCC1CCN(Cc2cccc(O)c2)C1)c1ccccc1 (stereo unspecified) | -6.6
OC[C@@H]1[C@H](c2ccc(-c3ccc(F)cc3)cc2)[C@H](CNC2CCCC2)N1CCC(F)(F)F | -48.3
O=C(Cc1cccs1)N1CCC(c2nnc(-c3ccccc3)c(-c3ccccc3)n2)CC1 | -18.2
Nc1cnc(-c2ccc(OC(F)(F)F)cc2)cn1 | -4.1
Cc1cccc(-c2nnc(-c3nc(N(C)Cc4ccccc4)c4ccccc4n3)o2)c1 | 233.4
C[C@H]1CN([C@@H](C)CO)C(=O)CCCn2nncc2CO[C@H]1CN(C)C(=O)CCC(F)(F)F | ?
Cc1ccccc1OCC1CCCN(C(=O)c2noc(C)c2Cc2c(C)noc2C)C1 (stereo unspecified) | -6.0
O=C(NC(Cn1cccn1)c1ccccc1)c1cccc(-n2cnnc2)c1 (stereo unspecified) | 10.6
CCN(CC)C(=O)c1cc(=O)n(CC(=O)Nc2cc(F)ccc2F)c2ccccc12 | 31.9
O=C(NC1CCC(n2cnnc2)CC1)c1ccccc1Oc1ccccc1 (stereo unspecified) | -5.6
COc1ccc(OCC(=O)N2CCc3ccccc3C2)cc1 | 18.3
O=C(CN1CCCC1)Nc1ccc(NC(=O)Nc2ccc(F)cc2)cc1 | 23.7
c1ccc(N2CCN(Cn3c4ccccc4c4ccccc43)CC2)cc1 | 35.8
Cc1cnn(Cc2ccc(Cl)cc2)c1NC(=O)c1cc(-c2cnn(C)c2C)on1 | -14.5
Cc1cccc(CC(=O)NCCc2csc(-c3ccc(Cl)cc3)n2)c1 | 36.1
CCn1c(CNC(=O)c2sc3ncnc(N4CCCC4)c3c2C)nc2ccccc21 | 76.7
O=C1CC(COCc2ccccc2)c2cnn(Cc3cccc(F)c3)c2N1 (stereo unspecified) | -21.1
O=C(c1cccnc1)N1CC[C@@H]2[C@H](CO)Nc3ccc(C4=CCCCC4)cc3[C@@H]21 | 4.2
CCN1CCO[C@H]2CCN(C(=O)c3cn(C)cn3)C[C@H]21 | 4.9
CO[C@H](CN(C)S(=O)(=O)c1cccc(Cl)c1)[C@H](C)CN(C(=O)Nc1ccccc1F)[C@@H](C)CO | -45.4
COc1ccc2ccc(OCc3nc(C(=O)N4CC(n5cccn5)C4)co3)cc2c1 | -19.5
CCN(C)C(=O)Cn1nc(C2CCCNC2)n(-c2ccccc2)c1=O (stereo unspecified) | 7.1
O=C(c1cccnc1)N1CCC(c2cc(=O)[nH]c(N3CCOCC3)n2)C1 (stereo unspecified) | 49.1
O=C(O)CC1(CC(=O)Nc2ccccc2-n2cccn2)CCCCC1 | 35.3

14 structures from above, ordered by number of heavy atoms, largest number first:
SMILES | Tg IFNy HTS
CO[C@H](CN(C)S(=O)(=O)c1cccc(Cl)c1)[C@H](C)CN(C(=O)Nc1ccccc1F)[C@@H](C)CO | -45.4
O=C(Cc1cccs1)N1CCC(c2nnc(-c3ccccc3)c(-c3ccccc3)n2)CC1 | -18.2
Cc1ccccc1OCC1CCCN(C(=O)c2noc(C)c2Cc2c(C)noc2C)C1 (stereo unspecified) | -6.0
CCN(CC)C(=O)c1cc(=O)n(CC(=O)Nc2cc(F)ccc2F)c2ccccc12 | 31.9
O=C(c1cccnc1)N1CC[C@@H]2[C@H](CO)Nc3ccc(C4=CCCCC4)cc3[C@@H]21 | 4.2
O=C(NC1CCC(n2cnnc2)CC1)c1ccccc1Oc1ccccc1 (stereo unspecified) | -5.6
c1ccc(N2CCN(Cn3c4ccccc4c4ccccc43)CC2)cc1 | 35.8
O=C(O)CC1(CC(=O)Nc2ccccc2-n2cccn2)CCCCC1 | 35.3
O=S(=O)(NCC1CCN(Cc2cccc(O)c2)C1)c1ccccc1 (stereo unspecified) | -6.6
COc1cccc(-c2nccn2CCC2CCCN2C)c1OC (stereo unspecified) | 56.4
CC(COc1ccccc1)NCc1n[nH]c2c1CCCCC2 (stereo unspecified) | -20.8
COCC1CN(CC2CCOCC2)Cc2ncn(C)c21 (stereo unspecified) | -20.9
CN1C(=O)CCc2cc(NC(=O)C(F)(F)F)ccc21 | 6.1
Nc1cnc(-c2ccc(OC(F)(F)F)cc2)cn1 | -4.1

Next part.
SMILES | Tg IFNy HTS
N#C[C@H]1N[C@@H](CO)[C@H]1c1ccc(C#CC2CCCCC2)cc1 | -32.8
C[C@H](CO)N1C[C@H](C)[C@H](CN(C)C(=O)[C@H]2CCCN2C)OCc2ccccc2-c2ccccc2C1=O | -20.4
COC(C(=O)N1N=C(c2c(-c3ccccc3)c3cc(Cl)ccc3[nH]c2=O)CC1c1ccccc1)c1ccccc1 (stereo unspecified) | -101.6*
CCOCC1CC2(CCN(C(=O)COc3ccc(F)cc3)CC2)CO1 (stereo unspecified) | 57.8
CCC(=O)N1[C@H](CO)[C@@H](c2ccc(-c3cccc(OC)c3)cc2)C12CN(C(C)=O)C2 | 45.6
CCN1C(=O)CCC12CCC(NC(=O)c1ccncc1F)CC2 (stereo unspecified) | 51.5
Cc1cc(-c2nccn2-c2ccc(CO)cc2)cc(C)c1O | 79.9
S=c1[nH]cc(-c2ccc(Br)cc2)[nH]1 | -97.0*
CO[C@H]1CO[C@@]2(CCCN(C(=O)C3CC=CC3)C2)C1 | 6.9
O=C(O)c1ccc(NC2OCC(O)C(O)C2O)cc1 (stereo unspecified) | 10.6
O=C(Cn1c(=O)cc(C(=O)N2CCCC2)c2ccccc21)Nc1cccc(F)c1 | 2.4
CC1CCN(S(=O)(=O)N2CCN(CC(O)c3ccc4c(c3)CC(C)O4)CC2)CC1 (stereo unspecified) | -34.6
COc1c(C)cc(-c2ccc(C)nn2)cc1C | -42.1
COc1ccc(NC(=O)c2ccc3nnc(C4CN(C(C)=O)CCN4C(C)C)n3c2)cc1 (stereo unspecified) | 41.0
Cn1cc(N2C(=O)CCC3C2CCN3C(=O)c2ccoc2)cn1 (stereo unspecified) | -13.2
C[C@@H](NC(=O)C[C@H]1CC[C@H]2[C@H](COc3ccc(NS(=O)(=O)c4ccc(Cl)cc4)cc3C(=O)N2C)O1)c1ccccc1 | -13.1
O=C1C(=O)N2C(=C1C(=O)N1CCCCC1)c1ccccc1CC21CCCC1 | -54.1
COc1ccc(-c2nc(Cn3ccn4nc(-c5ccc(F)cc5)cc4c3=O)c(C)o2)c(OC)c1 | 57.5
Cc1ccc2c(c1C)-n1cccc1C1(CCN(S(=O)(=O)c3ccc(C(C)C)cc3)CC1)N2 | 11.0
FC(F)(F)c1cc(Cl)c2ncc(-c3ccc(Br)s3)nc2c1 | 19.3
C/C=C/c1cccc(-c2nc(C(=O)N3CCCCC3)cc3c2[C@@H](CCO)N(C(=O)NC(C)C)C3)c1 | 35.7
O=C(c1cccs1)N1CCOCC2(C1)CN(c1cccnc1)C(=O)CO2 (stereo unspecified) | -2.5
COc1cccc(-c2ccc3cc(C(=O)CCN4CCOCC4)c(-c4cocn4)n3c2)c1 | 59.4
COCC(=O)Nc1ccc2c(c1)C(=O)N(C)C[C@@H](OC)[C@H](C)CN(C(=O)c1ccncc1)[C@@H](C)CO2 | 4.3
CCCCCCCCCCCCC/C=C/[C@@H](O)[C@H](CO)NC(C)=O | 7.6
COc1ccc(C(=O)N(Cc2cccc(F)c2)C2(C(=O)NCc3ccccc3)CCN(C(C)=O)CC2)cc1 | -53.4
CCc1nc(OCC(=O)Nc2ccc(C)cc2)c2ccccc2n1 | 2.0
Cc1cc(-c2ccc(=O)n(C3CCN(C(=O)C4CCC4)CC3)n2)c(C)o1 | 4.3
Cc1[nH]cnc1-c1nccn1CCc1nc2ccccc2[nH]1 | 8.0
CCOc1ccc(-c2nc3c(s2)CN(S(=O)(=O)c2cccc(F)c2)CC3)cc1 | 33.3
O=c1[nH]c2cc(F)ccc2c(O)c1-c1nc(-c2cccc(Br)c2)no1 | -10.6
COC(=O)c1c(NC(C)C)c2cccc(Cl)c2[nH]c1=O | 51.6
CS(=O)(=O)c1ccc(N2CCN(C(=O)CC3COCCN3)CC2)c(F)c1 (stereo unspecified) | 0.9
CS(=O)(=O)c1ccc(CC(=O)O)cc1 | 15.9
O=C(C[C@H]1C=C[C@H](NC(=O)c2cnccn2)[C@H](CO)O1)NCc1ccccc1F | 18.3
O=C(Nc1cccnc1)c1cc2c(s1)-c1ccccc1CC2 | -100.8*
CCC(C)(C)C(=O)N1CCC(CO)(CCOc2ccccc2)CC1 | 66.4
c1ccc(C(c2ccccc2)c2n[nH]c3c2CN(Cc2ccncc2)CC3)cc1 | -11.4
NC(=O)C1CCN(C(=O)c2cc3cccnc3n(Cc3ccccc3F)c2=O)CC1 | -13.3
Cc1oc(-c2ccc(Cl)cc2)nc1Cn1ccn2nc(-c3ccccc3)cc2c1=O | 34.4
CC(C)N(C(=O)Cn1ncc2cccn2c1=O)C(C)C | 5.5
Cc1[nH]cnc1-c1nccn1Cc1ccc2sccc2c1 | 13.1
COCCCN(C(=O)Nc1ccc(C)c(C)c1)C1CCN(C)CC1 | -7.7
Cc1ccccc1-c1noc(CN2CCCN(c3ccncc3C)CC2)n1 | -9.5
Fc1cccc(Cl)c1CSc1ccccc1Br | 71.7
Cc1nn(C)cc1NC(=O)C[C@H]1CC[C@H]2[C@H](COc3ccc(NC(=O)c4cccc(F)c4)cc3C(=O)N2C)O1 | 6.1
COC(=O)c1ccc(Cl)cc1NC(=O)COc1nc(C)nc2ccccc12 | -19.3
Cc1ccc2nc(C3CCN(CC(=O)O)CC3)nn2c1 | -41.6
CC(C)[C@H](Cn1c(=O)oc2ccccc21)NC(=O)c1cc(C(C)(C)C)[nH]n1 | 56.6
c1ccc(CCn2nnnc2C(c2ccccn2)N2CCC(Cc3ccccc3)CC2)cc1 (stereo unspecified) | -35.7
Later entries.
SMILES | Tg IFNy HTS
CC(=O)c1ccccc1-c1ccc2c(c1)CC(CNC(=O)c1cccc(-n3cccn3)c1)O2 (stereo unspecified) | -11.1
C/C=C/c1ccccc1[C@H]1[C@H](C#N)N(C(C)=O)[C@H]1CO | 29.3
COc1cc(C)c(NC(=O)Cc2nc3nc(C)cc(=O)n3[nH]2)cc1C(C)C | -24.3
CSc1cccc(NC(=O)NCC(c2cccnc2)c2c[nH]c3ccccc23)c1 (stereo unspecified) | 426.1
Cn1c(=O)[nH]cc(CC(=O)N2CCCC(Nc3ccc(F)c(F)c3)C2)c1=O (stereo unspecified) | 1.5
Cc1ccc(-c2noc(-c3c(O)c4ccc(F)cc4[nH]c3=O)n2)cc1 | 7.0
CCOC(=O)c1cc(-c2ccccc2)sc1NC(=O)CN1CCc2ccccc21 | 41.0
O=S(=O)(NCCc1csc(-c2ccc(F)cc2)n1)c1ccccc1F | -30.9
CCc1nc(C)c(C(=O)N(C)Cc2cnn(-c3ccc(F)cc3)c2)o1 | -7.4
Cc1oc(-c2ccc(NC(=O)C3CCCO3)cc2)nc1Cn1cccn1 (stereo unspecified) | 75.2
CN(C)C(=S)SCc1ccccc1C(=O)Oc1c(Cl)cccc1Cl | -2.1
O=C(Nc1ccc(Cl)cc1)c1nc(Nc2ccccc2)c2ccccc2n1 | 96.2
COc1ccccc1C1CCCN1S(=O)(=O)c1cn(C)c(=O)n(C)c1=O (stereo unspecified) | 5.2
O=C(Nc1ccccc1-c1ccccc1)c1csnn1 | 1.7
O=C(c1scc2c1CCCC2)N1CCCC(O)(CO)C1 (stereo unspecified) | -35.0
CO[C@H](C(=O)N(C)C[C@H]1OCc2ccccc2-c2ccccc2C(=O)N([C@H](C)CO)C[C@@H]1C)c1ccccc1 | -24.1
Cc1oc(C2CCN(C(=O)Nc3cccc(F)c3C)CC2)nc1C(=O)N1CCCC1 | -81.3*
N=C(CC(O)COc1ccccc1-c1ccccc1)N1CCCCC1 (stereo unspecified) | 14.4
C=CCn1c(=O)c(-c2nc(-c3ccc(F)c(Br)c3)no2)c(O)c2ccccc21 | 17.3
Cc1nc(-c2cc(C#N)c(Sc3cccc(C(F)(F)F)c3)nc2C)cs1 | -51.7
c1ccc(CCC2CN(Cc3ccoc3)CCO2)cc1 (stereo unspecified) | 17.8
Cc1ccc(-c2nc(Cn3nnc(C(=O)NC4CCCCC4)c3C)c(C)o2)cc1 | -37.2
COc1ccc(S(=O)(=O)NCCc2csc(-c3ccc(F)cc3)n2)cc1F | 34.4
CC=Cc1ccc2n(c1=O)C[C@H]1[C@H](CO)[C@@H](C(=O)N3CCc4ccccc4C3)[C@@H]2N1Cc1cocn1 (mixture of isomers) | 2.5
O=C(CSc1nc2ccccc2[nH]1)Nc1nc(-c2ccc(F)cc2)cs1 | 14.8
COc1ccccc1S(=O)(=O)N(C)C[C@H]1OCc2ccccc2-c2ccccc2C(=O)N([C@H](C)CO)C[C@H]1C | -13.4
COc1cc(SC)ccc1C(=O)N1CCC(Cc2ccccc2)CC1 | -20.6&-25.0&-0.3
COc1ccccc1-c1nc(Cc2noc(-c3ccccc3F)n2)c(C)o1 | -78.8*
CC(Cc1ccccn1)NC(=O)Cn1c(-c2ccccn2)nc2ccccc21 (stereo unspecified) | -48.4
CN(NC(=O)CC(=O)NN(C)C(=S)c1ccccc1)C(=S)c1ccccc1 | -64.4
CCCOC1CCCN(c2cc(CCN)nc(C)n2)C1 (stereo unspecified) | 2.6
O=C(CSCCOc1ccccc1)N1CCOCC1 | 55.1
Cc1ccccc1C1(O)CCN(C(=O)c2cn3cccnc3n2)C1 (stereo unspecified) | 39.1
COc1ncccc1-c1ccc(C(O)CN2CCOCC2)cc1 (stereo unspecified) | -9.6
CNC(=O)[C@@H]1C[C@H](N)CN1C(=O)c1csc2c1CCCC2 | ?
CCS(=O)(=O)N1CCC2(CC1)OC(=O)C(C)=C2C(=O)NCCN1CCCCCC1 | 21.9

Source: PubChem
